# Assay outcomes (PubChem)
# Beta apoptosis = blocks beta cell apoptosis; INS-1E cytokine-induced death, ATP luminescence, 48 h; percent of positive-control rescue, neutral wells zero; protection from apoptosis, % (test concentration not listed); 0.8% of 300,000 active;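 active means all replicates at 75% or more, or half of them and the mean; inconclusive means half reach 75% but not the mean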;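 further: 0% = cytokine-treated negative control wells and 100% = positive control rescue; higher means more ATP so stronger rescue from cytokine killing; wells of about 40 µL received 100 nL stock; the first replicate is given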
# RanGTP-Imp inh = disruptors of Ran-importin-beta complex formation – biochemical, FRET, CFP-Ran, YFP-importin-beta, homogeneous, primary screen | cell-free CFP-Ran/YFP-importin-beta FRET ratio | inhibition, % (test concentration not listed) | 1.1% of 300,000 active | AID 2216;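 active means most replicates above 15%; inconclusive means exactly half above 15%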;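 further: 0% = DMSO wells and 100% = Ran loaded with GDP instead of GTP; wells of about 40 µL received 100 nL stock; the first replicate is given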
# FGF22 binding = shifts melting point of recombinant human FGF22. recombinant FGF22 thermal shift, SYPRO orange fluorescence; percent of sucrose octasulfate shift, DMSO zero. 1.5% of 340,000 active. calls only at 9.99 µM;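 active means melting point raised past a set limit in the mean and every replicate; inconclusive means no clear call; three in four hits are not shown here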
# Target sequence (Q9HCT0 whole entry, looked up): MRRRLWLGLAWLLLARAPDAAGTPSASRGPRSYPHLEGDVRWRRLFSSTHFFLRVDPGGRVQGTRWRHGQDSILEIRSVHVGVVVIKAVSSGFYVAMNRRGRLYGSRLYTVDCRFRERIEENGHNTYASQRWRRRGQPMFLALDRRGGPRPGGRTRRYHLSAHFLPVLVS
# Calb FLC = C. albicans growth modulation with fluconazole; 0.57% of 300,000 active; AID 1979; growth inhibition, % (concentration not given with the values); C. albicans CaCi-2 (fluconazole-resistant clinical isolate) + fluconazole, Alamar Blue growth, 48 h;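 active means most replicates above 75%; inconclusive means exactly half above 75%; inactive means most below 75%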;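 further: all wells also contain fluconazole at 8 µg/ml as a sub-toxic cotreatment; 0% = median of DMSO wells and 100% = median of geldanamycin control wells; wells of about 8 µL received 7.5 nL stock; the first replicate is given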
# AF4-AF9 inh = blocks AF4 peptide binding to human AF9; 0.47% of 350,000 active; AlphaScreen, biotin-AF4 peptide binding to FLAG-AF9; inhibition, % at 10 µM;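 active means every replicate reaching a set inhibition limit, whatever the replicate mean, cut at about 25% in these data; inconclusive means mean inhibition reaches that limit but some replicates miss it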;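 further: 0% = plate neutral control median and 100% = total signal loss; the record names both 10 and 1 µM as test concentration; the first replicate is given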
# Target sequence (P42568 whole entry, looked up): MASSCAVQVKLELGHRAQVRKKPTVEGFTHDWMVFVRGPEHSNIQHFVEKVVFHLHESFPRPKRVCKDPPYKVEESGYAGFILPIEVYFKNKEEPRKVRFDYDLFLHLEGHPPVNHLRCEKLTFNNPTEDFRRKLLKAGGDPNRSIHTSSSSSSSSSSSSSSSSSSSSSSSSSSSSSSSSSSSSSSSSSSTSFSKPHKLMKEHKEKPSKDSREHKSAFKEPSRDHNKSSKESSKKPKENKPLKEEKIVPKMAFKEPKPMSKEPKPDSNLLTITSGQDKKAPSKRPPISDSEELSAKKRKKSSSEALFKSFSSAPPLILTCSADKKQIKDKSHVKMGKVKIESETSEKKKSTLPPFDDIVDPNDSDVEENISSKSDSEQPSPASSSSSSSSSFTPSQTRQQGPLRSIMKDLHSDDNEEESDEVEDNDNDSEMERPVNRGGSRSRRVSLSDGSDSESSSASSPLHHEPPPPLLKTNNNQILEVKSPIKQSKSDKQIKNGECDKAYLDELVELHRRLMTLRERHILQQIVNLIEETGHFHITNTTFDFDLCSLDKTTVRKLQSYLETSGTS
# T cruzi inh = blocks replication of Trypanosoma cruzi. T. cruzi beta-gal in NIH3T3, luminescence, 90 h. inhibition, % (concentration not given with the values). 1.4% of 300,000 active. AID 1885;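 active means mean inhibition across valid replicates above about 55%, limit read from the data; inconclusive means mean below that limit but half or more replicates reach it; inactive means mean below it, under half of replicates reach it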;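 further: signal also drops with host cell toxicity which is not excluded here; 0% = plate median of DMSO wells and 100% = zero luminescence signal; higher percent means less beta-gal luminescence so fewer parasites; stock transfer was 50 nL into about 50 µL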
# ALR inh = blocks human ALR sulfhydryl oxidase activity. inhibition, % (no concentration beside the values). AID 485317. purified ALR, DTT oxidation, H2O2 HRP-luminol luminescence. 3.8% of 290,000 active. P55789;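 active means mean and each replicate at 75% or more; inconclusive means only one of the two met; inactive means neither met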;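 further: stock transfer was 7.5 nL into about 7.5 µL; 0% = neutral wells and 100% = wells with inactivated enzyme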
# Target sequence (P55789 whole entry, looked up): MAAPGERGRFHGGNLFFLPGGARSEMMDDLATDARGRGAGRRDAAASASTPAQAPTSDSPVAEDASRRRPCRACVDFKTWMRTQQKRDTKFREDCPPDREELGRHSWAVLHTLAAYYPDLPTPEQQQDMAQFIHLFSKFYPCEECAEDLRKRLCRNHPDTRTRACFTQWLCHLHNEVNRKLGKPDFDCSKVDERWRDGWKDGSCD
# Ecoli rRNA inh = inhibits bacterial ribosomal RNA function over humanized ribosomes; E. coli WT GFP vs humanized-ribosome RFP mutants, fluorescence, 24 h; stronger effect = lower value; DMSO median 0, no signal -100; GFP signal change (wild-type ribosome), % (test concentration not listed); 1.6% of 350,000 active; AID 720706;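 active means significant combined selectivity score with lowered wild-type GFP, culture density cut under 30%, mutant RFP and density less affected; inactive means any of these conditions unmet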; further: one replicate is shown; some compounds called inactive have numbers as strong as hits
# Ecoli rRNA inh OD600 = recorded beside Ecoli rRNA inh, whose call it bears; OD600 change, %; measured here: OD600 growth;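 optical density of the mix in the first replicate; 0 = DMSO median and -100 = no signal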
# Ecoli rRNA inh RFP = recorded beside Ecoli rRNA inh, whose call it bears; RFP signal change, %; measured here: RFP humanized mutant strains;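 first replicate; 0 = DMSO median and -100 = no signal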
# * marks the source's active call; other numbers are inactive results; i = inactive; ? = inconclusive; · = no result given. This is a subset (hit frequency here may not be typical).
SMILES,Beta apoptosis,RanGTP-Imp inh,FGF22 binding,Calb FLC,AF4-AF9 inh,T cruzi inh,ALR inh,Ecoli rRNA inh,Ecoli rRNA inh OD600,Ecoli rRNA inh RFP
COc1cc(OC)cc(C(=O)NCCn2ccc3ccccc32)c1,3.1,2.7,i,4.7,-0.8,-32.6,-5.9,2.1,-7.0,1.8
O=C(CN(CC1CCCO1)C(=O)CCC(=O)Nc1nccs1)NCC1CCCO1 (stereo not drawn),·,0.9,·,18.8,·,-17.6,5.9,·,·,·
O=C(NC1(O)C(=O)c2ccccc2C1=O)c1ccccc1,3.8,-3.1,·,-3.7,·,-8.8,38.5,·,·,·
Cc1ccc(Nc2nc(N)nc(CSc3nc4ccccc4s3)n2)cc1,-0.8,?,·,4.8,·,28.3,-2.8,·,·,·
COc1ccccc1S(=O)(=O)N1CCN(S(=O)(=O)c2cccs2)CC1,-1.9,·,i,·,-1.2,·,-1.1,12.4,11.3,-1.9
O=C(CCc1c[nH]c2ccccc12)OCc1ccc(Br)cc1,-2.1,-0.7,i,-13.5,0.4,-1.4,-0.3,-65.4,-74.7,-21.5
Cc1cc(NS(=O)(=O)c2ccc(NC(=O)c3ccc(Br)o3)cc2)nc(C)n1,-4.6,-0.2,i,-8.9,-3.6,-4.6,-5.9,10.0,6.4,-0.7
Cc1cc(C(=O)NC2CCCc3c2cnn3-c2ccc(C)c(C)c2)n(C)n1 (stereo not drawn),110.2*,-0.2,i,-3.9,0.1,-58.2,10.1,-7.7,-10.2,-3.1
O=C(OCc1cc(-c2ccccc2)no1)c1ccc2ccccc2n1,-5.3,0.9,·,8.7,·,-13.6,-16.3,·,·,·
CCOc1ccccc1C(=O)Nc1ccccc1C(N)=O,-6.3,4.3,·,17.8,·,1.5,-8.0,-2.6,-3.7,-0.3
NS(=O)(=O)c1ccc(NC(=O)COC(=O)c2ncc(Cl)c(Cl)c2Cl)cc1,0.4,·,i,·,-0.3,·,2.0,-2.3,6.4,1.7
CCCCc1ccc(/C(C)=N/NC(=O)C2CCCC2)cc1,-1.7,3.4,i,1.7,0.9,-11.7,-13.8,2.0,7.3,-0.4
CC(=O)Nc1ccccc1-c1nn[nH]n1,-1.5,-1.0,·,-4.6,·,-7.9,-1.5,·,·,·
Cc1noc(C)c1S(=O)(=O)N1CCC(C(=O)Nc2ccc(OC(F)(F)F)cc2)CC1,-3.3,1.7,·,5.8,·,11.2,3.3,·,·,·
CC(=O)c1nnn(-c2nc(N3CCCC3)nc(N(c3ccccc3)c3ccccc3)n2)c1C,-1.3,6.3,·,22.7,·,20.6,-10.8,·,·,·
CCOc1ccc(-c2nnc(N(CC)C(=O)C3CCC3)s2)cc1,-1.4,-1.9,·,16.1,·,15.0,-4.5,·,·,·
COC(=O)C1=C(C)N(Cc2ccccc2)C(=O)N[C@H]1c1ccc(Br)cc1,-10.4,3.1,i,11.0,0.6,13.7,-1.8,-2.7,3.6,-1.9
O=C(Nc1cccnc1Cl)c1cc2ccccc2o1,-6.4,1.5,i,-1.4,-5.2,-9.6,-4.9,5.8,26.1,0.3
CC(Sc1nnnn1-c1ccc(Cl)cc1)C(=O)NCC(=O)Nc1ccc(F)c(F)c1F (stereo not drawn),-3.4,0.8,i,?,-6.2,-3.5,0.7,-3.9,2.8,2.6
CC(C)Oc1ccc(CNC(=O)Cn2c(=O)c3cccn3c3cccnc32)cc1,0.1,0.3,i,1.2,0.3,7.1,-7.7,-5.5,-3.4,-10.2

# Filtered by structure: the entries above with an aryl methoxy group
SMILES,Beta apoptosis,RanGTP-Imp inh,FGF22 binding,Calb FLC,AF4-AF9 inh,T cruzi inh,ALR inh,Ecoli rRNA inh,Ecoli rRNA inh OD600,Ecoli rRNA inh RFP
COc1cc(OC)cc(C(=O)NCCn2ccc3ccccc32)c1,3.1,2.7,i,4.7,-0.8,-32.6,-5.9,2.1,-7.0,1.8
COc1ccccc1S(=O)(=O)N1CCN(S(=O)(=O)c2cccs2)CC1,-1.9,·,i,·,-1.2,·,-1.1,12.4,11.3,-1.9

# The list continues.
SMILES,Beta apoptosis,RanGTP-Imp inh,FGF22 binding,Calb FLC,AF4-AF9 inh,T cruzi inh,ALR inh,Ecoli rRNA inh,Ecoli rRNA inh OD600,Ecoli rRNA inh RFP
S=C(NC1CCCCC1)c1ccc2c(c1)OCO2,-6.8,-3.4,·,-20.0,·,-11.0,9.9,·,·,·
Cn1c(-c2ccc(=O)[nH]c2)nc2ccccc21,-2.9,-3.2,i,7.9,-0.1,-1.9,6.0,7.5,6.4,1.3
COc1cccc(NC(=O)c2csc3c2CCCC3)c1,-3.5,-0.8,i,0.9,-13.2,-8.6,-14.7,-17.4,-40.7,14.9
Cc1n[nH]c(C)c1CS(=O)(=O)c1ccccc1,-3.9,1.4,i,-8.4,-0.4,-7.0,-5.1,16.3,6.1,-0.8
CCSc1nnc(NC(=O)c2ccc(F)c(S(=O)(=O)N3CCOCC3)c2)s1,1.9,·,i,·,?,·,45.8,-0.3,5.8,0.4
COc1cc(/C(C)=N/N2CCOCC2)cc(OC)c1OC,-15.2,-4.6,i,-11.2,-0.3,13.1,-4.0,10.0,6.5,-1.4
Cc1cc(N/C=C/C(=O)c2ccc(Br)cc2)no1,-2.4,7.0,i,-14.6,-0.2,13.0,-13.6,-0.2,-4.0,-0.9
COc1cccc(C(=O)NC(=S)Nc2ccc(N(C)C)cc2)c1,-2.7,0.3,i,0.5,-6.4,-6.3,-0.3,-20.9,-18.3,-3.2
COC(=O)CSc1nnc(CNc2ccc(F)cc2)o1,-9.7,0.5,·,2.1,·,-6.6,47.8,·,·,·
CC1CN(C(=S)Nc2ccccc2)N(c2ccccc2)C1 (stereo not drawn),-6.6,0.6,·,11.7,-2.8,-5.4,63.2,9.9,5.6,-1.7
Cc1ccc(N2C(S)=C(C#N)C(=O)NC23CCCCC3)cc1,-4.4,3.8,·,1.5,·,-24.8,41.8,·,·,·
O=C(NCc1cccs1)C1CCCN(S(=O)(=O)c2ccc3c(c2)OCO3)C1 (stereo not drawn),-7.2,-3.5,·,-9.5,·,0.3,2.3,-1.6,15.3,-3.5
COc1cccc(CNS(=O)(=O)c2cc3c(cc2Cl)NC(=O)CO3)c1,0.9,0.7,i,-7.1,-3.8,3.7,·,-0.1,2.2,-1.3
COc1ccc(C(=O)COc2ccccc2N2C(=O)C3C4C=CC(C4)C3C2=O)cc1 (stereo not drawn),-0.9,1.5,·,-9.9,·,-8.7,-12.2,·,·,·
O=C(O)C1CCCCC1C(=O)Nc1ccc(OCc2ccccc2)cc1 (stereo not drawn),0.2,-1.2,i,-10.3,-35.7,8.3,-0.1,-24.1*,-14.4*,-6.1*
O=C(COC(=O)c1ccc(O)cc1)Nc1cc(C(F)(F)F)ccc1N1CCOCC1,0.3,·,i,·,2.3,·,-2.4,-12.3,-7.1,-0.3
Cc1csc(NC(=O)CSc2nnc(C)s2)n1,-3.7,-1.6,·,-0.4,·,-4.7,-4.5,·,·,·
COc1ccc(C2CC2/C(=N/OC(=O)c2cccs2)c2ccccc2)cc1 (stereo not drawn),-2.3,-0.1,·,-6.0,·,3.9,-4.5,·,·,·
Cc1ccc(N2C(=O)N(CC(=O)Nc3ccc(C)c(C)c3[N+](=O)[O-])C(=O)C2C)cc1 (stereo not drawn),1.7,-3.6,i,-4.2,1.0,1.9,-0.2,-6.8,-7.3,1.4
NS(=O)(=O)c1ccc2ccccc2c1,-3.9,1.2,·,3.5,·,-8.1,-3.7,8.2,0.3,-7.9
CCN(CC)S(=O)(=O)c1cc([N+](=O)[O-])ccc1NNC(=O)Nc1ccc(Cl)c(Cl)c1,113.2*,1.6,·,-6.5,·,60.5*,-1.5,·,·,·
c1csc(-c2csc3ncnc(NCCCN4CCOCC4)c23)c1,76.2*,0.5,·,-4.0,·,-40.8,-0.6,·,·,·
OCCN(Cc1ccccc1)Cc1ccc(F)c(F)c1,-1.5,-1.7,i,-1.5,-0.3,-12.9,-6.8,-23.3*,0.2*,-7.3*
COc1ccc(-n2c(SCc3nnc(-c4ccccc4)o3)nnc2-c2ccccc2)cc1,-3.4,5.7,·,3.2,·,-4.1,-7.7,·,·,·
COc1ccc(/C=N/n2c(C)nc3ccccc3c2=O)cc1OC,-1.0,10.4,i,-0.7,-9.5,2.4,-10.6,3.9,11.2,-4.3
CC(C)c1ccc(NC(=O)N2CCN(S(=O)(=O)c3ccccc3)CC2)cc1,1.0,5.6,·,-7.0,1.2,2.7,-14.5,-12.2,-34.4,-6.6
CC(=O)Nc1cccc(OCc2ccc(F)cc2)c1,-7.3,-4.7,i,-0.4,-1.3,7.2,-2.6,0.8,-2.6,-0.5
O=C(Cc1ccc(Cl)cc1)Nc1ncccn1,-3.6,-2.6,·,1.1,-1.5,3.3,0.1,2.1,2.3,1.4
Cc1cccc(N(C(=O)CCC(=O)Nc2cc(C)on2)C(C(=O)NC2CCCC2)c2ccncc2)c1 (stereo not drawn),-2.7,-2.6,·,-3.5,·,12.5,16.8,·,·,·
CN(c1cccc2cccnc12)S(=O)(=O)c1ccccc1,·,4.0,i,13.9,0.3,-3.2,1.7,4.4,-5.2,-2.0
CCc1cc2c(=O)n(-c3ccccc3)c(=S)[nH]c2s1,-4.5,4.7,·,6.2,·,4.9,7.6,·,·,·
C[N+]12CCCCC1[C@@H](CO)CCC2 (stereo partly drawn),-8.9,-3.0,i,-9.9,0.3,-2.3,1.2,16.4,1.6,-0.7
CCC(=O)N1C(=O)C2(Nc3ccccc3N2)c2ccccc21,-3.3,-0.3,·,1.1,·,-3.6,0.6,·,·,·
CCN(CC)C(=O)CSc1nnc([C@@H](NC(=O)OC(C)(C)C)C(C)C)o1,2.2,-4.3,·,?,·,9.6,0.7,·,·,·
Cc1cc(C)c2c(=O)[nH]n(C3CC(C)N(C)CC3C)c2n1 (stereo not drawn),-3.8,1.2,·,-19.9,·,2.4,16.6,·,·,·
COCCN(CC(=O)Nc1cccc(C)c1C)C(=O)Cc1ccsc1,-0.5,·,i,·,0.2,·,-6.7,0.2,14.1,-3.5
CC(C)(C)C1CCC(C(=O)NCC(c2cccs2)N2CCOCC2)CC1 (stereo not drawn),8.8,4.6,i,3.4,-0.7,11.6,-2.2,-3.8,-17.6,-1.0
CN(C)c1c(F)cc(C(=O)NCc2ccccc2)cc1F,1.6,3.9,i,-0.8,2.0,-3.5,-14.4,5.5,3.6,-0.7
O=C(NCCN1CCCCCC1)C1CCCN1S(=O)(=O)c1cccc2nsnc12 (stereo not drawn),2.3,-3.5,i,-0.3,2.4,23.6,-3.6,8.1,5.7,6.0
CCCOC(=O)c1ccc(-c2ccc(C=O)o2)cc1,-4.1,-1.9,i,21.3,5.5,-10.4,·,-10.6,-21.5,-12.3
O=C(CCc1c[nH]c2ccccc12)N1CCN(S(=O)(=O)c2ccccc2)CC1,1.7,-3.1,i,6.8,-2.5,-4.2,7.3,-5.2,-6.9,2.7
Cc1c(/C=N\NC(=O)c2cc3ccccc3o2)c2ccccc2n1C,16.6,8.5,i,29.5,0.6,-21.1,-0.9,-23.4*,-4.5*,6.4*
COC(=O)c1ccc(S(=O)(=O)NCc2ccc(OC)cc2)n1C,·,-0.1,i,5.6,·,-12.6,0.2,4.5,7.7,4.9
